ugtP null kill: growth inhibition of ugtP-null S. aureus, primary screen, RN4220 ugtP deletion, OD600. 16 h; some inactives read as strong as hits. growth inhibition, % (concentration not given with the values). 0.54% of 330,000 active;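 active means z-score under -3 and OD600 up to 0.15 on both plates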;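 further: plate controls were untreated wells for no effect and antibiotic for full effect; wells of about 80 µL received 100 nL stock; the first replicate is given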
BJeLR lethal: MLPCN primary cell-based screen for lethality selective to Ras in HRASV12 cells; BJeLR (HRASV12) viability, CellTiter-Glo ATP luminescence, 48 h; reference of the scale not given here; inhibition, % (concentration not given with the values); 0.17% of 300,000 active; AID 1554, 2009;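 active means replicate mean above 50%; inconclusive means above 50% but judged a plate artefact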;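 further: 50 nL library stock added to about 25 µL; numbers are from one replicate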
PrP UTR inh: inhibition of PrP 5' UTR reporter expression; cell-based PrP 5' UTR mRNA reporter, plate reader; inhibition, % (test concentration not listed); 0.35% of 340,000 active;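 active means every replicate at 50% or more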;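 further: 0 = median of the neutral control wells; tested in H4 reporter cells; numbers are from one replicate; inactives centre near -14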
Bead autofluor: counter-screen for toxin protease inhibitors: compound fluorescence. compound autofluorescence counterscreen, microsphere flow cytometry; hits give high values. fluorescence intensity (no concentration beside the values). 3.1% of 360,000 active;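 active means at least 3 SD above the mean of all compounds, about 16000 in these data; inconclusive means too few beads counted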;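 further: 100 nL of 1 mM stock went into each well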
Mtb hypoxia rep: PubChem AID 1159583; 0.1% of 300,000 active; M. tuberculosis hypoxia-regulated fluorescent reporter, fluorescence; fluorescence inhibition, % (no concentration beside the values);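 active means 35 to 45% if threefold the growth effect, above 45% if 1.5-fold the growth effect; inactive means the rest, general growth blockers included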;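 further: wells of about 50 µL received 100 nL stock; 0% = vehicle wells and 100% = reference inhibitor wells; whole bacteria with a GFP reporter of the hypoxia response; strong numbers were not always called active; many hits fall short of the cut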
RN4220 kill: growth inhibition of S. aureus RN4220, primary screen, OD600; 0.33% of 330,000 active; inhibition, % (concentration not given with the values); AID 1259311, 2017; 16 h;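 active means z-score of -3 or lower and OD600 up to 0.18 on both plates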;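 further: plate controls were untreated cells for no effect and reference antibiotic for full effect; stock transfer was 100 nL into about 80 µL; one replicate is shown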
Mtb hypoxia rep growth: recorded beside Mtb hypoxia rep, whose call it bears; growth inhibition, %; measured here: M. tuberculosis growth (absorbance);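 0% = vehicle and 100% = reference antibiotic; read after six days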
* = called active by the depositor; ? = inconclusive; . = not tested or not shown; & = joins results of further samples. Rows were taken by chance. About 4.1% of those tested had a hit in this group.

Each structure is followed by: ugtP null kill	BJeLR lethal	PrP UTR inh	Bead autofluor	Mtb hypoxia rep	Mtb hypoxia rep growth	RN4220 kill
> Nc1nc2cc3ccccc3cc2[nH]c1=O
  -6	7	-9	3829	-13	0	4.6
> C/C(CC(=O)Nc1ccccn1)=N\NC(=O)c1ccc2ccccc2c1
  .	4	-31	2568	.	.	.
> CN(Cc1c(C(=O)N/N=C/c2ccc(O)cc2)nnn1-c1nonc1N)c1ccccc1
  .	3	-18	4430	.	.	.
> CN(c1ccc(F)cc1)S(=O)(=O)c1ccc(Cl)c(C(=O)NCc2ccco2)c1
  4	.	-24	3616	21	47	3.8
> CSc1ccc(C(=O)N2CCC(CCC(=O)NCc3ccc(F)cc3)CC2)cc1
  6	-5	-19	5326	9	9	0.1
> Cc1ccc(-c2cc(C(F)F)nc(N3CCOCC3)n2)cc1
  38	11	2	2422	-2	-1	2.0
> Cc1ccnc(NC(NC(=O)C(C)C)(C(F)(F)F)C(F)(F)F)c1
  4	-3	-18	1984	18	7	1.4
> O=C(NNC(=O)c1ccccc1Cl)c1cc2cc(OC(F)(F)F)ccc2[nH]1
  20	-12	-19	3618	11	4	3.2
> CCOc1ccc(CCNS(=O)(=O)c2cc3c(cc2C)NC(=O)CO3)cc1OCC
  -3	5	-9	6520	8	10	-5.3
> CCCCNC(=O)/C(C#N)=C/c1cccnc1
  10	-4	-8	1982	-7	7	2.5
> O=C(/C=C/c1ccc(Br)cc1)NC(=S)NNC(=O)c1ccco1
  12	-15	5	3920	.	.	60
> COc1ccc(C(=O)NCc2ccc(S(N)(=O)=O)cc2)cc1[N+](=O)[O-]
  .	2	-17	4269	.	.	.
> COc1ccccc1OC(C)C(=O)Nc1ccc(S(=O)(=O)Nc2nccs2)cc1 (stereo unspecified)
  -8	4	-17	6064	13	10	7.9
> CCOC(=O)c1c(C)[nH]c(C(=O)OCC(=O)Nc2cc(C)c(Cl)cc2OC)c1C
  -8	0	-9	3772	3	3	4.2
> COc1cc2cc(Oc3ccc4ccc(=O)oc4c3)c(=O)oc2cc1OC(C)=O
  -4	10	-14	4186	.	.	5.6
> Cc1ccc(C(=O)Nc2cccc(C(F)(F)F)c2)cc1NC(=O)c1ccno1
  -1	0	25	3376&3992	3	1	3.2
> Cc1ccccc1-c1nc(-c2ccc(NC(=O)c3cccs3)cc2)no1
  74	7	-71	2487	6	8	-24
> O=C(COC(=O)COc1ccc(Cl)cc1)NCc1cccs1
  -1	1	-17	9493	3	7	5.1
> Cc1ccsc1C(=O)NCCc1c[nH]c2ccccc12
  3	3	-42	4573	-1	-3	-1.9
> CCOC(=O)N1CCC(N2C(=O)c3ccccc3C2Nc2cccnc2)CC1 (stereo unspecified)
  0	-12	-25	4967	3	0	-8.8

Two compounds from above, reduced to RN4220 kill, PrP UTR inh and Mtb hypoxia rep growth:
Molecule	RN4220 kill	PrP UTR inh	Mtb hypoxia rep growth
Cc1ccc(-c2cc(C(F)F)nc(N3CCOCC3)n2)cc1	2.0	2	-1
Cc1ccnc(NC(NC(=O)C(C)C)(C(F)(F)F)C(F)(F)F)c1	1.4	-18	7

10 successive records from above, quoted:
Each structure is followed by: ugtP null kill	BJeLR lethal	PrP UTR inh	Bead autofluor	Mtb hypoxia rep	Mtb hypoxia rep growth	RN4220 kill
> Nc1nc2cc3ccccc3cc2[nH]c1=O
  -6	7	-9	3829	-13	0	4.6
> C/C(CC(=O)Nc1ccccn1)=N\NC(=O)c1ccc2ccccc2c1
  .	4	-31	2568	.	.	.
> CN(Cc1c(C(=O)N/N=C/c2ccc(O)cc2)nnn1-c1nonc1N)c1ccccc1
  .	3	-18	4430	.	.	.
> CN(c1ccc(F)cc1)S(=O)(=O)c1ccc(Cl)c(C(=O)NCc2ccco2)c1
  4	.	-24	3616	21	47	3.8
> CSc1ccc(C(=O)N2CCC(CCC(=O)NCc3ccc(F)cc3)CC2)cc1
  6	-5	-19	5326	9	9	0.1
> Cc1ccc(-c2cc(C(F)F)nc(N3CCOCC3)n2)cc1
  38	11	2	2422	-2	-1	2.0
> Cc1ccnc(NC(NC(=O)C(C)C)(C(F)(F)F)C(F)(F)F)c1
  4	-3	-18	1984	18	7	1.4
> O=C(NNC(=O)c1ccccc1Cl)c1cc2cc(OC(F)(F)F)ccc2[nH]1
  20	-12	-19	3618	11	4	3.2
> CCOc1ccc(CCNS(=O)(=O)c2cc3c(cc2C)NC(=O)CO3)cc1OCC
  -3	5	-9	6520	8	10	-5.3
> CCCCNC(=O)/C(C#N)=C/c1cccnc1
  10	-4	-8	1982	-7	7	2.5

Later entries:
Each structure is followed by: ugtP null kill	BJeLR lethal	PrP UTR inh	Bead autofluor	Mtb hypoxia rep	Mtb hypoxia rep growth	RN4220 kill
> CCOC(=O)[C@@H]1[C@H]2COc3ccc(Br)cc3[C@H]2N2C(=O)N(c3cccc(Cl)c3)C(=O)[C@]12C
  .	-3	-13	3027	.	.	.
> Cc1cc(N=CC2=C(O)CCCC2=O)no1
  -6	-1	-25	3160	0	-2	-2.8
> COc1ccc2c(c1)c1nnc(SC)nc1n2C
  3	5	-22	8413	12	12	2.4
> CN=c1oc2ccc(Cl)cc2cc1C(N)=O
  -1	-3	-14	8858	3	7	5.6
> CCOC(=O)C1(Cc2cccc(OC)c2)CCCN(C(=O)c2ccccc2C)C1 (stereo unspecified)
  4	1	-40	4495	1	1	6.4
> CCOC(=O)N1CCN(CC(=O)Nc2c(C(=O)OC)[nH]c3cccc(Cl)c23)CC1
  -5	-11	-2	15886	1	-4	0.1
> Cc1cc(C)cc(NC(=S)NCc2ccncc2)c1
  4	1	-9	3483	17	1	8.5
> CN1C(=O)C(CC(=O)O)S/C1=N\N=C\c1ccc(O)cc1O (stereo unspecified)
  .	-9	-11	3450	.	.	.
> Cc1ccc(C(=O)Nc2ccn(Cc3ccc(F)cc3)n2)o1
  1	-7	-39	2540	-4	0	3.6
> COc1ccc(CCNC(=O)c2cc(S(=O)(=O)N3CCCCC3)ccc2Cl)cc1
  -2	.	-22	6375	-7	-7	-2.6
> Cc1ccc(C(=O)NC(=Cc2cccnc2)C(=O)NCc2ccco2)cc1
  6	.	.	.	0	4	7.5
> COc1ccc(C(=O)NCc2nnc(SCC(=O)N3CCc4ccccc43)o2)cc1OC
  -4	10	1	4620	.	.	-2.7
> CC(=O)Nc1ccc(NC(=O)C2CCCN2C(=O)Nc2ccccc2[N+](=O)[O-])cc1 (stereo unspecified)
  1	11	-16	4551	21	7	3.7
> CC(C)(Cc1ccc(O)cc1)NC(=O)CC(=O)N=Nc1c(O)[nH]c2cc(Br)ccc12
  -5	-4	-36	4658	13	1	5.2
> CNCc1ccccc1Sc1cc(O)ccc1O
  -6	.	-10	1905	-2	-6	17
> CCC(=O)Oc1ccc(C2N(C(=O)CC)CCN2S(=O)(=O)c2ccc(C)cc2)cc1OC (stereo unspecified)
  6	11	-24	6566	11	4	2.8
> COc1cc(NS(=O)(=O)c2ccc(N/C=C\C(=O)c3ccc(F)cc3)cc2)nc(OC)n1
  22	-8	-47	7011	8	2	6.5
> Cn1c(=O)[nH]c(=O)c2c1nc(Br)n2CC(O)COCc1ccccc1 (stereo unspecified)
  -10	-6	-21	2867	.	.	-2.2
> COc1ccc(N(C)S(=O)(=O)c2cccc(C(=O)Nc3cccc(C(=O)NC4CC4)c3)c2)cc1
  5	.	15	?	0	9	1.0
> COc1ccc2nc(SCC(=O)NCC3CCCO3)c(C#N)cc2c1 (stereo unspecified)
  13	7	-19	3756	6	-9	-0.9
> COCCCN(C(=O)c1ccc(-c2ccc(C(C)=O)cc2)o1)c1c(N)n(CC(C)C)c(=O)[nH]c1=O
  3	.	-8	.	9	4	5.9
> COc1ccc(S(=O)(=O)N2CCC(C(=O)NCc3ccccn3)CC2)cc1OC
  -1	-6	-10	5491	0	7	-0.7
> COC(=O)C1CCN(C(=O)COC(=O)CNC(=O)c2ccc(Cl)cc2Cl)CC1
  -1	.	-4	8692	-9	-18	1.2
> CCOC(=O)c1ccoc1CSCC(=O)N1CCN(S(=O)(=O)c2ccc(C)cc2)CC1
  -4	-7	8	4014	6	7	1.0
> CC1CCCN(S(=O)(=O)c2cc3c4c(c2)C(C)C(=O)N4CCC3)C1 (stereo unspecified)
  3	4	-27	5207	5	3	6.1
> COc1ccc(NC(=O)[C@H](C)NC(=O)C2CCN(S(=O)(=O)c3ccc(OC)cc3)CC2)cc1
  5	-3	-2	4748	7	-12	1.7
> COc1ccc2nc(NC(=O)CS(=O)(=O)c3ccc(C)cc3)sc2c1
  -2	-5	-26	3699	8	5	5.2
> CCc1nc2ccccc2nc1N1CCN(S(=O)(=O)c2ccccc2)CC1
  6	3	.	6401	1	12	-0.3
> CCC(=O)c1cc(F)c(N2CCN(C(=O)c3ccco3)CC2)cc1C
  1	4	-17	6002	2	5	3.1
> Cc1cccc(NC(=O)CCCc2ccccc2)c1C
  7	-3	-36	3824	-4	-5	3.6
> Cc1ccc(C(=O)n2nc(-c3cccnc3)nc2N)cc1
  3	7	-29	9857	10	7	2.4
> Cc1ccccc1Cn1ccc(NC(=O)c2cc3ncc(Br)cn3n2)n1
  -2	10	-10	7100	9	5	2.5
> Nc1ccc(-n2cc(-c3ccccc3)[nH]c2=S)cc1
  6	-3	-55	3045	-4	1	3.4
> O=C(Cn1cnc2cc([N+](=O)[O-])ccc2c1=O)Nc1ccc(Br)cc1
  -5	5	-5	4190	6	-1	-5.3
> CCn1nc(Cc2cccc3ccccc23)c(C#N)c1N
  -1	7	-14	3364	5	-5	3.9
> CC1CN(C(=O)C2(C)CC2(Cl)Cl)CC(C)O1 (stereo unspecified)
  8	2	-17	2224	13	1	4.5
> CCNC(=S)N1CCN(CC(=O)Nc2ccc(OC)cc2)CC1
  9	1	-18	4237	0	1	-0.2
> CCCC(C)c1nnc(NC(=O)CCS(=O)(=O)Cc2ccccc2)s1 (stereo unspecified)
  12	4	-17	5182	1	6	0.7
> O=C(O)C1C(c2ccccc2)C(C(=O)Oc2ccccc2)C1c1ccccc1 (stereo unspecified)
  -2	-8	-24	24658*	3	2	12
> COc1ccc(Cn2c(=O)[nH]c3cc(C(=O)N4CCN(c5ccccn5)CC4)ccc3c2=O)cc1
  0	-7	-29	4064	10	4	-2.1
> Cc1cc(C)n(-c2nc3c(c(=O)n(C)c(=O)n3C)n2C)n1
  -3	0	-29	2952	1	-2	-7.5
> CCCCOC(=O)Nc1nnc(/C=C/c2ccc(OC)cc2)s1
  -13	-2	-18	2067	3	9	7.3
> COc1ccc(C2=NOC(Cn3nc(C(=O)NCc4cccc(C(F)(F)F)c4)cc3-c3ccccc3)C2)cc1 (stereo unspecified)
  5	-8	-16	2921	10	5	3.2
> Cc1oc(-c2ccccc2F)nc1CS(=O)(=O)CC(=O)N1CCc2ccccc21
  -2	.	-26	5722	2	0	-16
> CC(C)CCNC(=O)c1ccc(-c2ccccc2)cc1
  2	6	.	.	-2	-30	-8.6
> Cc1ccc2c(c1)c1c(c(=O)n(-c3ccccc3C)c(=O)n1CC(=O)NCC1CCCO1)n2C (stereo unspecified)
  2	-3	-5	5612	-3	-2	1.4
> COc1cccc(OC)c1C(=O)NC(=S)Nc1ccc(N2CCOCC2)c(Cl)c1
  20	5	-10	2786	16	8	8.1
> O=C(NCCc1ccccc1Cl)C1CCN(S(=O)(=O)c2cccs2)CC1
  4	0	-10	5371	1	-1	-1.1
> Cn1c(=NC(=O)C2CC2)sc2cc(F)cc(F)c21
  -2	10	-32	6577	-5	8	-11
> CCC(C)Nc1nc(Cl)nc(NCCOc2ccccc2)n1 (stereo unspecified)
  -5	6	-21	7606	0	-2	5.8
> Cn1c(O)c(/C=N/N2CCCCC2)c(=O)[nH]c1=O
  -1	-21	-5	1997	-1	5	1.7
> O=C(NCc1ccco1)C1CCCN1C(=O)Nc1ccccc1[N+](=O)[O-] (stereo unspecified)
  0	-6	-14	4114	1	-1	1.9
> COc1cccc(C(=O)Nc2nc(-c3ccncc3)cs2)c1
  13	-5	-14	2518	-1	-2	-3.9
> O=C(COc1ccc(C(=O)c2ccccc2)cc1)Nc1ncccc1O
  1	-11	-15	5009	8	2	6.8

From PubChem
